# Assay outcomes from PubChem BioAssay.
# Integrin act MD = qHTS for Activators of Integrin-Mediated Alleviation for Muscular Dystrophy; alpha7betagal myoblasts, beta-gal FDG fluorescence, 48 h; Potency, µM (highest dose often 38.3 µM), inactives show at the highest dose activation, actives largely listed as activators; 350,000 tested, 0.064% active; AID 624291, 2012; active = well fitted activation curve with a large enough effect;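 also: 100% = response of the positive control SU9516; nearly all actives have a fitted effect of over 60% in size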
#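 alpha7betagal+/- myoblasts (passage 13, 250/well) treated 48 h at 37C with compounds at 1:260 dilution of DMSO stock. Lysed, then beta-galactosidase activity read as FDG fluorescence (ex 480/em 540) after 30 min, with pre-read for autofluorescence.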
# * marks the source's active call; other numbers are inactive results. Potency is read from the fitted curve at half-maximal effect. Not all compounds are listed; most or all hits stand in other tables.
SMILES,Integrin act MD
CN1CCN(C(=O)c2ccc(NS(=O)(=O)c3ccccc3)cc2)CC1,12%
Clc1ccccc1CN1CCc2sccc2C1,-17%
